Assay outcomes from PubChem.
HIV TAR-Tat = HIV-1 TAR-Tat binding disruption. z-score (test concentration not listed). AID 1259389. HIV-1 TAR RNA, Tat peptide displacement FRET; active compounds read high. 100,000 compounds, 0.6% hits;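 further: score is relative to mean and SD of negative controls; some compounds called inactive have numbers as strong as hits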
CDC25B-CDK2 inh = human CDC25B-CDK2/CyclinA binding inhibition | P30305+P24941 | HTRF CDC25B-CDK2/CyclinA binding, anti-His/anti-Flag; active compounds read high | z-score (concentration not given with the values) | 94,000 compounds, 0.72% hits | AID 1259370;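 further: score is relative to mean and SD of negative controls; strong numbers were not always called active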
Active calls of the source: *; x = no result given.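 How the source made its calls: active means z-score from 3 up in half or more of its runs; inactive means the rest.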 Not a hit list, and some 0.89% of all compounds hit somewhere here.

Every second line gives: HIV TAR-Tat, CDC25B-CDK2 inh
> OCCCc1nc2n(n1)C(c1ccccc1)C=C(c1ccccc1)N2 (stereo unspecified)
  x, -0.37
> O=C(c1cccn2c(=O)c3sccc3nc12)N1CCN(c2ccc(F)cc2)CC1
  x, -0.52
> COc1ccc(C2CC(c3ccc(C(C)C)cc3)Nc3nnnn32)c(OC)c1 (stereo unspecified)
  2.6, x
> CCOC(=O)Cn1cnc2c(nnn2-c2cccc(Cl)c2)c1=O
  x, 0.16
> Cc1ccc(-c2nc(S(=O)(=O)c3ccc(C)cc3)c(SCC(=O)NCC3CCCO3)o2)cc1 (stereo unspecified)
  0.3, -3.7
> Nc1c(-c2nc(-c3cccs3)no2)nnn1-c1cccc(F)c1
  0.14, x
> CC(=O)c1ccc(NCN2C(=O)/C(=C\N(C)C)NC2=S)cc1
  x, -0.93
> CCc1ccc(S(=O)(=O)c2cn(C)c3ccc(CC)cc3c2=O)cc1
  -0.02, -0.1
> Cc1c(Cl)cccc1NC(=O)N1CCn2cccc2C1C(C)C (stereo unspecified)
  0.13, x
> O=C1c2ccccc2S(=O)(=O)N1c1ccc(Cl)cc1
  0.57, -0.5
> CCOC(=O)c1c(NC(=O)CSc2cc(C)ncn2)sc2c1CCC(C)C2 (stereo unspecified)
  1, 0.53
> O=C(Nc1ccc2c(c1)OCO2)N1CCN(Cc2ccc3nccnc3c2)CC1
  -1.2, x
> CC(CS(=O)(=O)c1ccc2c(c1)NC(=O)CS2)C(=O)N1CCc2ccccc21 (stereo unspecified)
  -3.3, x
> COc1cc(C(=O)Nc2ccc(F)c(F)c2)nc2ccc(Cl)cc12
  1.1, -1.4
> C=CCN1C(=O)C2(/C(=C(/O)c3ccc(OCC)cc3)C(=O)C(=O)N2CCOC)c2ccccc21 (stereo unspecified)
  1.3, -0.12
> Cc1ccccc1-c1nnc(SCc2ccc(F)cc2)o1
  -2.4, -0.36
> Cn1c(=O)n(C)c2cc(CNCCNC(=O)c3nonc3N)ccc21
  0.91, 0.46
> CC1CCC2(CC1)SCC(=O)N2c1ccccc1 (stereo unspecified)
  x, -0.69
> CCCCc1nnc(NC(=O)Cc2csc(C)n2)s1
  0.5, -1.6
> NC(N)=NC(N)=Nc1ccccc1Oc1ccc(Cl)cc1Cl
  x, -1.2
> CSC1=NS(=O)(=O)c2c(C)nn(C)c2S1
  x, 0.88
> COc1cc2nc(NCc3ccccn3)n3nc(-c4ccccc4)nc3c2cc1OC
  1.8, 1
> Cc1nn(-c2nc3ccccc3s2)c2c1C(c1cccc(F)c1F)CC(=O)N2 (stereo unspecified)
  1.4, -1.3
> CCc1nnc2c3c4c(sc3ncn12)CC(C)CC4 (stereo unspecified)
  1.4, 0.92
> CSc1nc2c(c(=O)[nH]1)C(c1cc(C)ccc1C)CC(=O)N2 (stereo unspecified)
  2.2, -3.1
> Cc1cn2c(=O)cc(CSc3nnc(C)n3C)nc2s1
  1.6, x
> CCCCNC(=O)c1nn(C)c2c1CCc1sccc1-2
  0.09, x
> O=S1(=O)N=C(Nc2ccccc2Br)c2ccccc21
  -7.3, -0.69
> CN(C)c1ccc(CNS(=O)(=O)c2cc(F)ccc2CN2C(=O)c3cccnc3C2=O)cc1
  -0.21, x
> COc1cc(OC)cc(C2C(C#N)=C(N)OC3=C2C(=O)CCC3)c1 (stereo unspecified)
  x, 0.17
> CN(C)S(=O)(=O)c1ccc2c(c1)N(CC(=O)N1CCN(c3ccccn3)CC1)CCS2
  -0.36, x
> O=S(=O)(NC1CCCCC1N1CCN(c2ncccn2)CC1)c1ccccc1 (stereo unspecified)
  2, -1.2
> O=c1c(CNc2ccccc2)cc2cccc3c2n1CCC3
  -0.33, 0.22
> Nc1ccccc1S(=O)(=O)Nc1ccccc1Cl
  1.2, x
> CC(C)C1N=C(c2ccc3c(c2)OCO3)CC(c2ccccc2O)N1 (stereo unspecified)
  x, -2.1
> Cc1ccc(-n2nnc(-c3nc(-c4ccccc4C)no3)c2N)cc1
  -0.84, x
> CSc1ccc(NC(=O)N2CCCC(O)C2)cc1 (stereo unspecified)
  0.4, -0.9
> CCCN1C(=O)c2ccc(-c3ccco3)n2CC1(C)C(=O)NC1CCC(C)CC1 (stereo unspecified)
  2.1, x
> CCCNC(=O)C1=C(C)C(=O)OC12CCN(C(C)=O)CC2
  1, x
> Cn1c(=O)c2c(-c3ccccc3Cl)n(-c3ccccc3Cl)cc2n(C)c1=O
  -2, -1.2
> O=C1NCCCc2nc(Oc3ccccc3)sc21
  x, -0.72
> CCCNc1c(N2CCC(C(=O)OCC)CC2)c(=O)c1=O
  -0.64, -0.79
> NC(=O)C(F)(Cl)c1c(F)c(F)c(F)c(-c2ccccc2)c1-c1ccccc1 (stereo unspecified)
  x, 0.68
> O=S(=O)(c1ccc(Cl)cc1)N1CCCC(c2nc(-c3ccc(Cl)cc3)no2)C1 (stereo unspecified)
  2.4, x
> Clc1ccc(OCc2nn3c(-c4ccccc4)nnc3s2)cc1
  1.4, -0.68
> O=C(NCc1c(-n2cccc2)sc2c1CCCC2)Nc1cc(F)ccc1F
  0.46, 0.74
> CC(C)(C)c1nnc2sc(SCC(=O)NC3CCCCC3)nn2c1=O
  0.32, x
> COc1ccc(-c2n[nH]c(=S)n2-c2ccccc2)cc1
  x, -0.08
> O=S(=O)(NCCc1csc2nc(-c3cccc(F)c3)nn12)c1ccc2c(c1)CCCC2
  0.6, x
> CC(=O)NC1=NN(C(C)=O)C(c2ccc(C)o2)S1 (stereo unspecified)
  16*, -2.3
> O=S(=O)(c1ccc2ccccc2c1)N(CC(O)COCc1ccco1)c1ccccc1 (stereo unspecified)
  0.52, 0.37
> CCOc1ccc(/C=C/c2nc(C#N)c(NC3CC3)o2)cc1
  0.2, -2.4
> Cc1cc2c(s1)CCc1cc(C(=O)O)sc1-2
  0.59, -1.6
> CN(C)S(=O)(=O)c1ccc2c(c1)c(C(=O)O)cn2C
  -0.07, -0.85
> CCCNC(=O)Cn1cnc2sc(C(=O)N3CCCC3)c(C)c2c1=O
  x, -0.96
> Cc1ccc(-c2onc(C)c2C)cc1S(=O)(=O)N1CCSc2ccccc21
  0.63, x
> CCCCN(CC)C(=O)Cn1ncc2c1-c1ccccc1OC2
  -0.51, -0.68
> O=C1CC(c2ccccc2)Sc2nc(-c3ccc(F)cc3)nn21 (stereo unspecified)
  0.57, 1.5
> Cc1cc(Cl)ccc1NC(=O)C1=Cc2sc(C)c(C)c2CS1
  -1.7, x
> O=C(CCCn1c(=O)c2cccn2c2cccnc21)N1CCCC1
  0.19, x

Continued:
structure	HIV TAR-Tat	CDC25B-CDK2 inh
CN(C)CCOC(=O)c1cnn2c(C(F)(F)F)cc(-c3ccc(F)cc3)nc12	1.2	0
CC1(C)Cc2nc3sc4c(N5CCCCC5)ncnc4c3cc2CO1	x	-1.1
CN(Cc1ccco1)C(=O)C(Cc1ccccc1)NS(=O)(=O)c1ccc2c(c1)CCC(=O)N2 (stereo unspecified)	x	-1.4
CCN1CNC(=S)N(c2ccccc2)C1	x	-0.35
CCCn1c2ccccc2c2cnn(CC(=O)N(C)c3ccccc3F)c(=O)c21	0.88	x
Cc1sc2c(c1C)c(=O)n(CCc1ccccc1)c(=O)n2Cc1cc(=O)n2cc(Cl)ccc2n1	-4.7	-2.3
COCCNS(=O)(=O)c1ccc(-c2cnc(C)o2)cc1	1.4	x
O=C(CSc1nc2c(c(=O)[nH]1)CCC2)Nc1ccccc1	1.2	-0.93
O=C(CSc1nc(-c2ccccc2F)nc2cc(=O)[nH]n12)Nc1ccccc1F	3.4	x
COc1ccccc1CN1CCc2nc(N3CCN(c4ncccn4)CC3)ncc2C1	1	x
CC(C)CCn1c(SCC(N)=O)nc2c1c(=O)[nH]c(=O)n2C	1.3	1.5
COc1ccc(NS(=O)(=O)c2ccc3c4c2CC(=O)N4CC(C)S3)cc1OC (stereo unspecified)	-0.08	x
Cc1nc(SCC(=O)N2CCC(C)CC2)c2c(=O)n(C)c(=O)n(C)c2n1	x	-1.1
COc1cc(C2c3c(-c4ccccc4)n[nH]c3C(=O)N2c2ccc(C(=O)O)cc2)ccc1O (stereo unspecified)	1.6	x
Cc1cc(NC(=O)c2cc(-c3ccc(C)c(F)c3)on2)no1	1.7	0.05
CCOC(=O)c1nc(Nc2cccc(SC)c2)c2ccccc2n1	1.2	x
NS(=O)(=O)c1ccc(NC(=O)c2nn(-c3ccc(F)cc3)ccc2=O)cc1	-0.2	0.11
Cc1ccc(CN(C(=O)c2oc3ccc(Cl)cc3c2C)c2ccccn2)o1	0.49	-1.3
O=C(NC1CCCc2ccccc21)c1noc2c1CCc1sccc1-2 (stereo unspecified)	-0.23	x
CS(=O)(=O)c1ccc(-c2cccc(NS(=O)(=O)c3ccc(Cl)cc3)c2)nn1	1.2	x

Complete entries from above. Screens in order: HIV TAR-Tat	CDC25B-CDK2 inh
`Cc1nc(SCC(=O)N2CCC(C)CC2)c2c(=O)n(C)c(=O)n(C)c2n1` reads x	-1.1
`O=C(CSc1nc2c(c(=O)[nH]1)CCC2)Nc1ccccc1` reads 1.2	-0.93
`COc1cc(C2c3c(-c4ccccc4)n[nH]c3C(=O)N2c2ccc(C(=O)O)cc2)ccc1O` (stereo unspecified) reads 1.6	x
`O=C(CSc1nc(-c2ccccc2F)nc2cc(=O)[nH]n12)Nc1ccccc1F` reads 3.4	x
`CN(Cc1ccco1)C(=O)C(Cc1ccccc1)NS(=O)(=O)c1ccc2c(c1)CCC(=O)N2` (stereo unspecified) reads x	-1.4

Laid out differently: results already given.
> NS(=O)(=O)c1ccc(NC(=O)c2nn(-c3ccc(F)cc3)ccc2=O)cc1
  HIV TAR-Tat: -0.2
  CDC25B-CDK2 inh: 0.11
> Cc1ccc(CN(C(=O)c2oc3ccc(Cl)cc3c2C)c2ccccn2)o1
  HIV TAR-Tat: 0.49
  CDC25B-CDK2 inh: -1.3
> O=C(NC1CCCc2ccccc21)c1noc2c1CCc1sccc1-2 (stereo unspecified)
  HIV TAR-Tat: -0.23
  CDC25B-CDK2 inh: x
> CS(=O)(=O)c1ccc(-c2cccc(NS(=O)(=O)c3ccc(Cl)cc3)c2)nn1
  HIV TAR-Tat: 1.2
  CDC25B-CDK2 inh: x

Later entries:
structure	HIV TAR-Tat	CDC25B-CDK2 inh
O=C(CSc1nnc(-c2cccc(Cl)c2)o1)N1CCc2ccccc21	0.8	-1.8
O=C(O)[C@H](Cc1ccccc1)N1Cc2ccccc2C1=O	1.5	-1.4
CC1CC(=O)Nc2ccccc2N1C(=O)Nc1ccccc1OC(F)(F)F (stereo unspecified)	x	-0.66
O=C(c1ccc2c(=O)nc3c(-c4ccccc4)n[nH]n3c2c1)N1CCN(c2ccccn2)CC1	1.6	x
CSc1ccc(C2C(C(=O)N3CCCCC3)=C(C)NC3=C2C(=O)CCC3)cc1 (stereo unspecified)	1.2	x
CS/C(=C(/C#N)S(=O)(=O)C(C)C)N1CCCC1	x	-1.3
O=S(=O)(Nc1ccc2c(c1)OCCO2)c1cccc2nonc12	x	-1.8
Cc1ccc(NS(=O)(=O)c2ccc3c(c2)oc(=O)n3C)cc1F	-0.93	-0.28
O=C(Nc1ccc(C(=O)N2CCCC2)cc1)C1=CSCCO1	1.4	x
O=c1c2c3c(sc2ncn1Cc1ccccc1Cl)CCCC3	0.69	x
O=C(Nc1cc(F)ccc1F)C1CCCN(c2ncnc3c2nc2n3CCCCC2)C1 (stereo unspecified)	0.61	x
O=C(c1ccccc1)c1ccc2nc(N3CCOCC3)c3nncn3c2c1	-1.1	x
c1csc(C2NCc3c(sc4c3CCCC4)-n3cccc32)c1 (stereo unspecified)	0.73	1.7
CCC(C)C(=O)OC1[C@@H]2CC3=C4CC(=O)O[C@@H](c5ccoc5)[C@]4(C)CCC3C(C)(C2=O)[C@@H](CC(=O)OC)C1(C)C (stereo partly specified)	1.3	x
CC(C)OCCCNC(=O)CCc1nnc2ccc(N3CCCCC3)nn12	0.06	x
CCCn1c(=O)c(CC(=O)OCC)c(O)c2ccccc21	1.6	x
Cc1c(Cl)cccc1N1CC(O)=C(c2nc3ccccc3n2C)C1=N	1.5	-1.6
Cc1onc(-c2ccccc2)c1C(=O)N1CCN(c2ccc(F)cc2)CC1	x	-1.1
COc1ccc(OC)c(C2CC(=O)C3=C(C2)NC(=O)CC3c2ccccc2OC)c1 (stereo unspecified)	0.83	-1.7
Cc1nc2ccccc2c2c1C(=O)N(c1ccccc1)C2=O	3.4	-0.09
COc1ccc(-c2noc(N3CCC(C)CC3)n2)cc1	-0.42	x
Cc1ccc(-c2ccc(C)c([N+](=O)[O-])c2)cc1[N+](=O)[O-]	x	0.54
COC(=O)C1(C)CCC(C(=O)O)C1(C)C (stereo unspecified)	x	0.64
O=C(CN1C(=O)CCS(=O)(=O)c2ccccc21)NC1CCCCC1	1	0.39
C=CCNc1nc(-c2ccc(Cl)cc2)cs1	1.5	-2.6
COc1ccc(OC)c(Nc2nc(N3CCC(C)CC3)nc(N)c2[N+](=O)[O-])c1	1.3	x
CCOC(=O)C1CCCN(S(=O)(=O)c2cc3c(cc2C)NC(=O)CO3)C1 (stereo unspecified)	2.9	x
N#Cc1c(C(F)(F)F)cc(-c2cccs2)nc1N1CCCCC1	x	-0.9
O=C(O)CCCn1nnc2cc(S(=O)(=O)N3CCCCC3)ccc21	0.43	x
Cc1nc2ncnn2c(C)c1CCC(=O)N1CCc2ccccc21	x	-0.95
CCc1ccc(C2C(C#N)=C(N)Oc3n[nH]c(-c4ccccc4)c32)cc1 (stereo unspecified)	0.92	-0.81
